HCMV NEC inh: disrupts HCMV UL50-UL53 complex binding; HTRF UL50-UL53 interaction, normalized percent inhibition; inhibition, % (concentration not given with the values); 190,000 compounds, 0.15% hits;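 active = both replicates at 50% or more, plus weaker picks with an unusually low signal ratio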;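 note: stock transfer was 100 nL into about 20 µL; 0% = negative control wells and 100% = wells with untagged competitor protein; inactives centre near -12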
Active calls of the source: *; & = joins results of further samples. An excerpt; rates above refer to the full screens.

SMILES	HCMV NEC inh
COc1cccc(C(=O)Nc2ccc3nc(SC)sc3c2)c1	-22.6
Cc1cccc(-n2nc3c(c2NC(=O)c2c(F)cccc2Cl)CS(=O)(=O)C3)c1C	-11.4
CCOc1ccc(C(=O)CSc2nnc(CC)n2N)cc1	-18.6
CCSc1nnc(NC(=O)C(CC)Sc2ccc(Cl)cc2)s1 (configuration not stated)	-16.5
O=C(Nc1ccc(Cl)cc1)OCc1ccc(Cl)nc1	3.9
OC(CCCN1CCN(c2ncc(F)cn2)CC1)c1ccc(F)cc1 (configuration not stated)	5.8
S=c1sc2ccccc2n1Cc1ccccc1	-6.0
CCNC(=O)c1cccnc1N1CCN(c2ccc(Cl)cc2)CC1	-10.9&-10.9
CCCCCCCC/C=C\CCCCCCCC(=O)N[C@H](CO)Cc1ccc(O)cc1	-21.8&-21.8
CCOC(=O)C1=C(N)Oc2ccc(Br)cc2[C@H]1C(C#N)C(=O)OCC (some centres not stated)	-51.1
COc1ccc(Cl)cc1C(=O)NCCc1cc2ccc(C)cc2[nH]c1=O	-12.4
NC(=O)CSC1=NN2CCCC(=O)N=C2S1	-22.9

Fetched by structure from the list above (4):
SMILES	HCMV NEC inh
COc1cccc(C(=O)Nc2ccc3nc(SC)sc3c2)c1	-22.6
OC(CCCN1CCN(c2ncc(F)cn2)CC1)c1ccc(F)cc1 (configuration not stated)	5.8
CCOc1ccc(C(=O)CSc2nnc(CC)n2N)cc1	-18.6
CCNC(=O)c1cccnc1N1CCN(c2ccc(Cl)cc2)CC1	-10.9&-10.9

(next part)
SMILES	HCMV NEC inh
CC(=O)N1CCc2c(sc(NC(=O)C(C)C)c2C#N)C1	-13.1
C[C@@H]1O[C@@H](O[C@H]2[C@H](Oc3cc(O)c4c(c3)O[C@H](c3ccc(O)cc3)CC4=O)O[C@H](CO)[C@@H](O)[C@@H]2O)[C@H](O)[C@H](O)[C@H]1O	-24.7
O=C(Nc1ccc(-n2nncc2-c2ccccc2)cc1)c1ccco1	-5.8
COc1ccc2oc(-c3ccccc3)c(C(N)=O)c2c1	-17.4
O=C(O)/C=C/c1ccc(-c2cccc(Cl)c2)o1	-40.5
Cc1csc2ncnc(-c3cccc4cccnc34)c12	-3.7&-3.7
Cc1cccc(C)c1NC(=O)CC(C(=O)O)N(C)C (configuration not stated)	12.7
COc1ccc(CN2C[C@@H](CN3CCOCC3)C[C@@H](C(=O)NCC(C)C)C2)cc1OC	-8.7
COC(=O)CSC1=C(C#N)C(c2cccs2)C(C(=O)Nc2ccccc2C)=C(C)N1 (configuration not stated)	-16.7
CC1CC(C)CN(C(c2ccccc2)c2sc3ncnn3c2O)C1 (configuration not stated)	6.3
CC(O)c1nc2ccccc2n1Cc1ccccc1F (configuration not stated)	-0.3
CC(C)(C)c1cc(C(=O)/C=C/c2ccc(C(=O)O)cc2)cc(C(C)(C)C)c1	-57.9
O=C(NCc1cccc(C(F)(F)F)c1)c1ccc[nH]1	2.0
CCc1cc2c(SCC(=O)c3ccc(Cl)s3)ncnc2s1	-3.4
O=C(Oc1ccccc1)c1cc2ccccc2oc1=O	-16.7
NC(=O)N1CCC(CC(=O)N2CCC(C3c4ncc(Br)cc4CCc4cc(Cl)cc(Br)c43)CC2)CC1 (configuration not stated)	0.3
CC(=O)O[C@@H]1C[C@H]2C(C)(C)C(=O)C=C[C@]2(C)[C@H]2CC[C@@]3(C)[C@H](c4ccoc4)OC(=O)[C@H]4O[C@]43[C@@]21C	-1.0
Cc1cccc(-c2nnc(NC(=O)C(C)(C)C)s2)c1	-14.1
CN1C(CC(=O)c2ccccc2)CCCC1CC(O)c1ccccc1 (configuration not stated)	-38.0
N#C/C(=C\c1ccc(O)c(O)c1)C(=O)NCCCCc1ccccc1	-15.4
CCSC(=Nc1ccccc1)Nc1ccccc1	-18.8
COCCN1C(=O)N(C(C)C)C(=O)C12CCN(Cc1c(F)cccc1Cl)CC2	-3.2
O=C(C1CCC(=O)N1C1CCCC1)N1CCN(c2ccccc2)CC1 (configuration not stated)	-10.5
Cc1cc(-c2cc3c(n(C)c2=O)CCN(Cc2ccc(Sc4nncn4C)o2)C3)ccc1F	-39.7
Nc1nccc(-c2cccc(C(F)(F)F)c2)n1	-1.9
CN1/C(=C\C=C2C(=O)CC(C)(C)CC2=O)C(C)(C)c2ccccc21	-46.8
COc1ccc(CNc2nc(N3CCCC3CO)ncc2C(=O)NCc2ncccn2)cc1Cl (configuration not stated)	-1.3
CCOc1ccc(Cc2nnc(SCC(=O)c3ccc(Cl)cc3)o2)cc1	-11.2
Cc1ccc(C(=O)Nc2nc3ccc(S(C)(=O)=O)cc3s2)cc1	1.8
O=C(O)c1ccc(B(O)O)cc1	-29.8
Cc1cc(C)c(S(=O)(=O)c2cccc(C(F)(F)F)c2)c(=O)[nH]1	-7.2
O=C(O)c1ccc2c3c1cccc3c(=O)n1c3ccccc3nc21	-57.3
O=C(CSc1nnc2sc3ccccc3n12)NCc1ccccc1	-1.1
COc1ccc(C(Nc2ccccn2)c2c(C)[nH]c3ccccc23)cc1OC (configuration not stated)	-4.5
CCOC(=O)c1sc2nc(NC(C)=O)sc2c1C	-21.7
Cc1cc2cc(CNC(=O)c3ccc(S(=O)(=O)N(C)C)cc3)ccc2[nH]1	-16.3
Cc1ccc(C)c(SCC(=O)O)c1	-25.8
Cc1nc2sc(C(c3cccs3)N3CC(C)CC(C)C3)c(O)n2n1 (configuration not stated)	-19.6
CCc1ccc(-c2csc(N)n2)cc1	-5.7
Cc1ccccc1-c1nnc(-c2cc(C(C)(C)C)nn2Cc2ccc(F)cc2)o1	-6.0
O=C(/C=C/c1cccs1)Nc1ccc2c(c1)OCO2	-53.4
Nc1cc(C(F)(F)F)ccc1C(=O)O	-18.5
O=C(Cc1cccs1)Nc1nnc(-c2ccc(Cl)cc2)s1	-25.5
CC(C(=O)O)n1c(C(F)(F)F)nc2ccccc21 (configuration not stated)	-7.2
NNc1nc(-c2ccccc2)c2ccccc2n1	-16.4
Cc1ccc(OC[C@@H](O)[C@H](C)NC(C)C)c2c1CCC2	0.1
CCOC(=O)c1sc(NC(=O)Cc2cccc3ccccc23)cc1C	-10.9
CC(Oc1ccc(F)cc1)C(=O)N(Cc1ccccc1Cl)C1CCS(=O)(=O)C1 (configuration not stated)	-2.3
Cc1ccc(CC(=O)Nc2ccnn2C2CCCCC2)cc1F	-8.6
CN(C)C(CC(=O)Nc1cccc(C(F)(F)F)c1)C(=O)O (configuration not stated)	9.4&-0.6
Cc1cc(-c2ccc(CC(=O)Nc3ccc(-c4cccnc4)cc3)cc2)ccn1	-15.1
NC(=O)c1cccc(-c2cccc(OC(=O)NCCCCCCc3ccccc3)c2)c1	-10.4&-10.4
Cc1ccn2cc(C(=O)N(CC(C)C)CC(C)C)nc2c1	-8.5
COc1ccc2nc3n[nH]c(C)c3c(NCCOCCO)c2c1	-16.1
Cc1ccc(C(O)CCc2ccc(N)cc2)cc1 (configuration not stated)	10.7
Cc1ccc(C(=O)N/C(=C\c2ccco2)C(=O)NC2CCCCC2)cc1	-18.9
CCCCN1CCC(CCC(=O)c2cc(Cl)c(N)cc2OC)CC1	-4.5
O=c1[nH]cnc2scc(-c3ccc(Cl)cc3)c12	-3.0
Nc1ccc(-c2cnc(N)c(C(=O)c3cccnc3)n2)cn1	-63.0
CCOc1cccc(NC(=O)c2cc(=O)c3ccccc3o2)c1	0.3

(listing goes on)
SMILES	HCMV NEC inh
CC(=O)Nc1nc(C2CCCCC2)cs1	7.0
Cc1nc(NCc2ccco2)c2c3c(sc2n1)CCC3	-16.9
O=C(Nc1ccc(-n2cccc2)cc1)c1ccc(Cl)cc1	1.1
CN1C(CCl)Nc2cc(Cl)c(S(N)(=O)=O)cc2S1(=O)=O (configuration not stated)	-10.9&-58.8
Cc1ccc(S(=O)(=O)CNC(=O)C(C)(C)C)cc1	-9.7
CCn1c(C(C)NC(C)=O)nc2ccccc21 (configuration not stated)	8.2
Cc1ccn(C(=O)c2ccc(NC(=O)C3CC3)cc2)n1	-4.1
Clc1ccc(OCc2nc3ccccc3[nH]2)c(Cl)c1	-0.8
CN(C)CC=CC(=O)Nc1cccc(-c2c[nH]c3ncnc(Oc4ccc(NC(=O)CC(=O)Nc5ccc(F)cc5)cc4F)c23)c1	15.5
COC(=O)c1ccc(N2C(=O)CCC2=O)cc1	-2.0
Cc1c(C(=O)N(C)C2CCCCC2)sc2nc3ccc(N)cc3n12	0.5
CC(C)N1CC(OCc2ccc(F)cc2)CN(C(=O)c2ccc(C#CC(C)(C)O)o2)CC1=O (configuration not stated)	-8.8
COc1cc(O)c2c(c1)oc(=O)c1c3cc(O)c(O)cc3oc21	-14.4
O=c1c(-c2ccc(F)cc2)c(-c2ccncc2)[nH]n1-c1ccc(Cl)cc1	-4.4
OCc1nc2ccccc2n1CC1CC1(Cl)Cl (configuration not stated)	-5.2
COc1cc(N=CC2=C(O)CC(C)(C)CC2=O)c(OC)cc1Cl	-6.7
CCN1C(=O)Cc2ccccc21	1.3
Cc1ccc(C(=O)Nc2sc(CC#N)nc2-c2ccc(C)cc2)cc1	-7.4
CC(CCCC(C)(C)O)NC/C=C/c1ccc(F)cc1 (configuration not stated)	-5.8
O=C(Sc1nnnn1-c1ccccc1)c1cccc(Cl)c1	2.0
O=S(=O)(Nc1ccc(O)c(-c2c(O)ccc3ccccc23)c1)c1cccs1	-2.1&-12.0
CCCCC/C=C\CC1OC1CCCCCCCC(=O)O (configuration not stated)	-3.0
C=CCN(CC=C)S(=O)(=O)c1ccc(C(=O)N2CCCCC2)cc1	-1.3
Cc1cc2c(cc1C)NC(CC(=O)NC(C)c1ccccc1)C(=O)N2 (configuration not stated)	-32.2&-2.7
CC1(C)CCC(C)(C)c2cc(C3(c4ccc(C(=O)O)cc4)OCCO3)ccc21	-3.3
Cc1ccc(S(=O)(=O)NC(Cc2ccccc2)C(=O)O)cc1C (configuration not stated)	-9.3
c1cc(NC2=NCCCCC2)ccc1NC1=NCCCCC1	-1.8
COc1ccc(CCNC(=O)CCn2c(=O)oc3ccccc32)cc1	-5.7
Cc1cccc(-c2[nH]c(C(C)(C)C)nc2-c2ccc3c(c2)OCO3)n1	-17.0&-11.4
NS(=O)(=O)c1ccc(N=Nc2c(O)[nH]c3ccc(Br)cc23)cc1	-18.8
CC(=CC(=O)OCCCCCCCCC(=O)O)CC1OC[C@H](CC2O[C@H]2C(C)C(C)O)C(O)C1O (some centres not stated)	-19.6
CCn1c(C(C)NC(=O)C(C)(C)C)nc2ccccc21 (configuration not stated)	-5.4
CC(=O)Nc1cccc2c1c(Sc1ccc(Cl)cc1)c(C)n2CC(=O)O	0.8
Cc1cc(C)nc(SCC(=O)CSc2nc(C)cc(C)n2)n1	7.1
CCN1CCN(CC(O)COc2ccc(C3CCCCC3)cc2)CC1 (configuration not stated)	-7.1
O=C(CSc1ncccc1C(=O)NCc1cccnc1)Nc1cccc(C(F)(F)F)c1	0.2
CC(C)NS(=O)(=O)c1cc(NC2CCCCC2)cc(C(=O)NC2Cc3ccccc3C2)c1	0.1
O=C(CSc1nc2c(c(=O)n1-c1ccc(Cl)cc1)SCC2)NCCc1ccccc1	-7.6
CCCCC(C)(C)[C@H](O)/C=C/[C@H]1[C@H](O)CC(=O)[C@@H]1C/C=C\CCCC(=O)O	-15.1&-15.1&-7.7
OC(COCCC12CC3CC(CC(C3)C1)C2)CN1CCCCC1 (configuration not stated)	7.3
COc1ccccc1N1CCN(C(=O)CCC(C)C)CC1(C)C	-14.0
CCCCC[C@H](O)/C=C/[C@@H]1[C@@H](C/C=C\CCCC(=O)NC(CO)CO)[C@@H](O)C[C@H]1O	-15.6&-15.6
COc1ccc(-c2cc3ccccn3c2C)cc1	-33.8
COc1ncnc2c1cnn2-c1ccccc1	6.0
COc1cc(C)c(C)cc1S(=O)(=O)NC1CCCCCC1	4.4
Cc1ccc(Cl)cc1NC(=O)CC(C(=O)O)N1CCNCC1 (configuration not stated)	3.1
COc1ccc(C(=O)NC(C)c2nc3ccccc3[nH]2)cc1OC (configuration not stated)	-14.0
O=C(c1nn(Cc2ccccn2)c2c1CN(C/C=C/c1ccco1)CC2)N1CCc2ccccc2C1	-15.9
CCCCCCCCCCCCCCCCCCCCCC(=O)NCCO	-27.1&-27.1
COc1ccc(CC(=O)NC(C)C(c2cccs2)N2CCN(C)CC2)cc1OC (configuration not stated)	-14.2
O=C(CSc1nccn1-c1ccccc1)N1CCc2ccccc21	-3.4
CC(=O)N1CCc2ccccc2C1CC(=O)O (configuration not stated)	-2.5
O[C@@H]1[C@H](O)[C@@H](CCl)O[C@H]1n1cnc2c(NC3CC4CCC3C4)ncnc21 (some centres not stated)	9.6
Nc1nc(-c2ccc(Oc3ccccc3)cc2)cs1	-5.4
N#Cc1c(NC(=O)/C=C/c2cccs2)sc2c1CCCC2	-20.9
CC(C)Cc1cc2c(c(N)n1)c(=O)oc1ccccc12	-11.4
CCCn1c(CCCNC(=O)CC)nc2ccccc21	5.9
O=C(NCCn1cncn1)c1cc(-c2ccccc2)cc(S(=O)(=O)N2CCSCC2)c1	-15.3
Cc1sc2nc(SC3CCOC3=O)[nH]c(=O)c2c1C (configuration not stated)	0.4
CCSc1nc2c(cnn2-c2ccccc2)c(=O)[nH]1	14.0

New compounds follow:
SMILES	HCMV NEC inh
O/N=C/c1cccn1-c1ccc(Br)cc1	-4.6
Nc1ccc(C(=O)OCCCc2nc3ccccc3[nH]2)cc1	-4.4
O=C(NCc1ccc2[nH]c3c(c2c1)CCCC3)c1cccs1	-4.4
CC(C)C[C@H]1NC(=O)[C@H]2CN(C(=O)OCc3ccccc3)CCN2C1=O	-14.6
CN(C)CCOc1cc(-c2cn[nH]c2)ccc1NC(=O)C1COc2ccccc2O1 (configuration not stated)	-18.9&-21.4&-22.3

7 structures from above, sorted by SMILES length, largest number first:
SMILES	HCMV NEC inh
CC(C)NS(=O)(=O)c1cc(NC2CCCCC2)cc(C(=O)NC2Cc3ccccc3C2)c1	0.1
COc1ccc(CC(=O)NC(C)C(c2cccs2)N2CCN(C)CC2)cc1OC (configuration not stated)	-14.2
OC(COCCC12CC3CC(CC(C3)C1)C2)CN1CCCCC1 (configuration not stated)	7.3
Cc1ccn2cc(C(=O)N(CC(C)C)CC(C)C)nc2c1	-8.5
Cc1sc2nc(SC3CCOC3=O)[nH]c(=O)c2c1C (configuration not stated)	0.4
O=C(Nc1ccc(Cl)cc1)OCc1ccc(Cl)nc1	3.9
Cc1csc2ncnc(-c3cccc4cccnc34)c12	-3.7&-3.7

Compound activity: PubChem BioAssay, ICCB-Longwood Screening Facility, Harvard Medical School
